RanGTP-Imp inh – inhibitors of RanGTP-importin-beta interaction, primary screen, biochemical, FRET, CFP-Ran, YFP-importin-beta, homogeneous; cell-free CFP-Ran/YFP-importin-beta FRET ratio; Ran GTPase (GTP-bound) - importin-beta complex; inhibition, % (concentration not given with the values); 300,000 tested, 1.1% active;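 active = most replicates above 15%; inconclusive = exactly half above 15%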;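 also: 0% = DMSO wells and 100% = Ran loaded with GDP instead of GTP; wells of about 40 µL received 100 nL stock; the first replicate is given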
A1 inh – caspase 3/7 activation in MEF A1-2A-BIM cells, primary screen, A1 inhibitor project, cell-based, luminescence, HTS. 330,000 tested, 0.066% active. AID 2462, 2010. Caspase-Glo 3/7 luminescence, 3 h; percent of clofoctol response, vehicle zero. caspase activation, % (test concentration not listed);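 active = over half of replicate activation scores above 10%, or exactly half above 10 with the replicate mean above 10; inconclusive = replicate mean below 10 yet half the replicates above 10; inactive = over half of replicates below 10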;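 also: wells of about 30 µL received 50 nL stock; many hits fall short of the cut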
Vif TR-FRET – inhibitors of Vif binding to APOBEC3G peptide, primary screen, biochemical, TR-FRET, GST-Vif 1-94, biotin-A3G peptide, dose response retest (AID 1117319). inhibition, %, or IC50 in µM where a hit was titrated. TR-FRET GST-Vif / biotin-A3G peptide binding; higher % means a stronger effect; test concentration not given here; strong numbers were not always called active. 260,000 tested, 0.57% active;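 active = above the screen mean plus three standard deviations and confirmed in dose response; inconclusive = results disagree or hit not tested in dose response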;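 also: Vif residues 1-94 fused to GST binding biotinylated APOBEC3G peptide 110-148; 0% = full assay without inhibitor and 100% = GST in place of GST-Vif; retest series ran down from 100 µM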
LANA-H2B inh – blockers of LANA interaction with H2A/H2B – biochemical, FP readout, HTS, primary screen; Protein LANA1 (Human herpesvirus 8 type P (isolate GK18)), Q9QR71; cell-free LANA-H2A/H2B peptide, fluorescence polarization; inhibition, % (test concentration not listed); 320,000 tested, 0.6% active; AID 2629, 2010; in the data active = inhibition mostly above about 10%, no sharp cut-off; inactive = mostly below about 6.7%;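 also: stock transfer was 7.5 nL into about 10 µL; 0% = median of vehicle wells and 100% = median of positive control wells; one replicate is shown; the record names a cut of 25% in any replicate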
Target sequence (Q9QR71 whole entry, looked up): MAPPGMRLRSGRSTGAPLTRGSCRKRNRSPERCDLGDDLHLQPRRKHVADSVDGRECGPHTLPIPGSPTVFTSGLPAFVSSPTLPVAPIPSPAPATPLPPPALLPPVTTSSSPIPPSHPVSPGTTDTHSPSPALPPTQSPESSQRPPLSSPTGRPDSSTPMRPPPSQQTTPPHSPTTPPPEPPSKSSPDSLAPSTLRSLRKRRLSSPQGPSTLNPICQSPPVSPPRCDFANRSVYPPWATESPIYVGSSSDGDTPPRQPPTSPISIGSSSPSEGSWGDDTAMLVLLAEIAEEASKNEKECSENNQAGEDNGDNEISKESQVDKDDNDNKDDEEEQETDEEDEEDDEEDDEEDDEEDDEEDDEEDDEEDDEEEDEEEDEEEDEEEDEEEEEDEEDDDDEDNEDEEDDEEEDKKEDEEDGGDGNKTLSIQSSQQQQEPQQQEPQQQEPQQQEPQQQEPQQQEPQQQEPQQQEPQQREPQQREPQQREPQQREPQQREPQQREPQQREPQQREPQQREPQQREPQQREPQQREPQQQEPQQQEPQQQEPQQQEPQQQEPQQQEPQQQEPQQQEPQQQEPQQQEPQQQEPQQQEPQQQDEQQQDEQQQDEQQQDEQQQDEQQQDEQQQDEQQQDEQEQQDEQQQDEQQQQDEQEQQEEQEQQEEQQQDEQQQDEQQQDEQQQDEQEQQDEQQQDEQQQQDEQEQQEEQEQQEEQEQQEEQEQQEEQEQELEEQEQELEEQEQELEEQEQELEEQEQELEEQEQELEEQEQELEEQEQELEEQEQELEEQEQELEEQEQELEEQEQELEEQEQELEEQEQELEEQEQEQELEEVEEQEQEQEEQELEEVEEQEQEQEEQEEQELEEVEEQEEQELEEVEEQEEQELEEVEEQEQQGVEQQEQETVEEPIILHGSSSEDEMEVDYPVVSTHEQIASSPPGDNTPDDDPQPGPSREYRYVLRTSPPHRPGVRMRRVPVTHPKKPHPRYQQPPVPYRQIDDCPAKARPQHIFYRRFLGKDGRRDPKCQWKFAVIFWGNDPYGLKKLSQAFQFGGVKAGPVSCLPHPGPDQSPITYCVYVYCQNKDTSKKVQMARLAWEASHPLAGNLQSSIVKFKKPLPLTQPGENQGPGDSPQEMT
Beta apoptosis – inhibitors of cytokine-induced beta cell apoptosis, primary screen, luminescence. INS-1E cytokine-induced death, ATP luminescence, 48 h; percent of positive-control rescue, neutral wells zero. protection from apoptosis, % (test concentration not listed). 300,000 tested, 0.8% active;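 active = all replicates at 75% or more, or half of them and the mean; inconclusive = half reach 75% but not the mean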;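 also: 0% = cytokine-treated negative control wells and 100% = positive control rescue; higher means more ATP so stronger rescue from cytokine killing; wells of about 40 µL received 100 nL stock; the first replicate is given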
Calb FLC – C. albicans growth inhibition with fluconazole, primary screen, CaCi-2 strain, Alamar Blue fluorescence; 300,000 tested, 0.57% active; AID 1979, 2009; growth inhibition, % (test concentration not listed); C. albicans CaCi-2 (fluconazole-resistant clinical isolate) + fluconazole, 48 h;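 active = most replicates above 75%; inconclusive = exactly half above 75%; inactive = most below 75%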;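 also: all wells also contain fluconazole at 8 µg/ml as a sub-toxic cotreatment; 0% = median of DMSO wells and 100% = median of geldanamycin control wells; wells of about 8 µL received 7.5 nL stock; the first replicate is given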
MLL AF4-AF9 inh – inhibitors of AF4 peptide binding to AF9, primary screen, biochemical, AlphaScreen, biotin-AF4 peptide, FLAG-AF9, single point. Protein AF-9 (Homo sapiens), P42568. inhibition, % at 10 µM. 350,000 tested, 0.47% active. AID 651704, 2012;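 active = every replicate reaching a set inhibition limit, whatever the replicate mean, cut at about 25% in these data; inconclusive = mean inhibition reaches that limit but some replicates miss it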;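 also: 0% = plate neutral control median and 100% = total signal loss; the record names both 10 and 1 µM as test concentration; the first replicate is given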
T cruzi inh – inhibitors of intracellular T. cruzi growth, primary screen, luminescence, NIH3T3 host cells; inhibition, % (test concentration not listed); AID 1885, 2009; T. cruzi beta-gal in NIH3T3, 90 h; 300,000 tested, 1.4% active;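 active = mean inhibition across valid replicates above about 55%, limit read from the data; inconclusive = mean below that limit but half or more replicates reach it; inactive = mean below it, under half of replicates reach it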;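 also: signal also drops with host cell toxicity which is not excluded here; 0% = plate median of DMSO wells and 100% = zero luminescence signal; higher percent means less beta-gal luminescence so fewer parasites; stock transfer was 50 nL into about 50 µL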
* marks the source's active call; other numbers are inactive results; ? = inconclusive; . = no result given; & = joins results of further samples.

SMILES	RanGTP-Imp inh	A1 inh	Vif TR-FRET	LANA-H2B inh	Beta apoptosis	Calb FLC	MLL AF4-AF9 inh	T cruzi inh
Cc1n[nH]c(=S)n1/N=C/c1ccccc1	0.0	2.2	-1%	-6.1	-11	1	.	-3
CC1CCc2cc(F)ccc2N1C(=O)c1ccc2c(c1)OCO2 (stereo not drawn)	-2.4	0.3	2%	4.5	11	1	.	-14
CC(C)NC(=O)N(O)C1N(C(C)C)C(=O)N(Cc2ccc3c(c2)OCO3)C1(C)C (stereo not drawn)	-2.7	0.5	.	-13	.	-10	-0.6	4
CCN1CCN(CC(O)COC(c2ccccc2)c2ccccc2)CC1 (stereo not drawn)	1.5	0.4	-3%	-4.6	1	-7	-1.5	6
O=C(COC(=O)c1ccccc1SCC(=O)N1CCCC1)NC1CCCCC1	-2.9	-0.9	2%	-3.2	-1	1	-0.6	-2
Cc1nc(NS(=O)(=O)c2cccs2)c2c3c(sc2n1)CCC3	-1.5	-0.6	?	-0.4	.	?	.	-13
O=C(O)CSc1nnc(Nc2ccccc2)n1-c1ccccc1	?	1.1	-4%	0.0	.	-7	-7.7	7
Cn1c(CO)cnc1S(=O)(=O)Cc1c(Cl)cccc1Cl	3.8	-3.3	-2%	-5.3	-8	-2	-0.5	-8
CCN(CC(=O)Nc1c(F)cccc1F)C(=O)CN1c2cccc3cccc(c23)S1(=O)=O	-0.9	-0.1	-1%	3.1	0	.	-0.7	5
CCC(CC)C(=O)Nc1cc(=O)n(C)c(=O)n1C	-0.6	-0.1	2%	-0.9	-5	-12	-7.2	-5
COc1ccc(Cl)cc1NC(=O)C/C(C)=N/NC(=O)COc1ccc(C)cc1	0.7	0.8	3%	-4.0	-3	-15	-2.9	-5
COc1ccc(CCCc2nnc(SCc3nc4ccccc4c(=O)[nH]3)n2C)cc1	-5.3	0.2	3%	-8.1	-2	-5	-0.9	0
CCn1cc(C(=O)NCc2cccc(F)c2)c(=O)c2cc(F)c(N3CCN(C(=O)c4ccco4)CC3)cc21	-2.3	0.5	18%	-0.8	25	-5	.	40
COc1ccccc1NC(=S)N1CCN(c2ncccn2)CC1	-1.4	-0.2	?	-5.2	0	17	-4.4	0
NC(=O)C1(N2CCCCC2)CCN(C(=O)c2ccc(C#CC3(O)CCCCC3)cc2)CC1	2.1	-0.8	30%	1.8	2	-4	.	2
Cc1ccc(CSc2nnnn2C)cc1	-2.3	0.0	19%	1.8	-6	-5	.	-1
Cc1ccc(OCc2cc(C(=O)N(C)CCc3ccccn3)no2)cc1C	-4.2	-0.2	.	-1.2	-2	-1	-0.9	2
COc1ccc(OC)c(NC(=O)C2CC(C)=C(C)CC2C(=O)O)c1 (stereo not drawn)	-2.8	-0.2	9%	2.2	5	-1	.	-10
COc1ccc(CC2(C)OC(c3ccccc3)=NN2C(C)=O)cc1 (stereo not drawn)	7.1	1.1	.	-1.8	-5	-5	.	-6
COC(=O)/C(C#N)=C/c1c(-c2ccccc2)nc2n1CCS2	1.8	-0.2	-5%	2.6	-1	1	.	2
COc1ccc(NS(=O)(=O)c2ccc(C)c(C(=O)NNC(=O)c3ccccc3O)c2)cc1	-8.2	1.0	25%	-0.7	-2	-5	-14	-15
Nc1nnc(SCc2ccccc2Cl)s1	3.5	-0.4	-6%	7.6	-8	-11	.	-3
CCC(C)(C)NC(=O)C(c1ccco1)N(C(=O)Cn1nnc2ccccc21)c1ccc2c(c1)OCO2 (stereo not drawn)	2.0	1.4	9%&-5%	-1.2	-6	-11	.	-10
COc1ccccc1-n1cnnc1SCC(=O)Nc1cccc(S(N)(=O)=O)c1	1.4	1.2	-2%	5.5	0	4	0.8	-4
COc1ccc(NC(=O)NCCN2CCc3ccccc3C2)cc1	-4.3	0.3	-4%	1.0	1	-11	.	-39
CCOC(=O)c1ccccc1NC(=O)COC(=O)CCC(=O)N1CCOCC1	-0.6	-0.5	7%	4.3	.	0	-0.2	8
COc1ccc(CN2CC(=O)N(c3ccc(Cl)cc3)C2=S)cc1OC	1.3	-0.2	-2%	-2.5	1	16	-1.2	-11
O=C(NNC(=O)c1ccc([N+](=O)[O-])cc1)c1ccc(F)cc1	4.1	-1.1	.	-3.8	.	3	1.5	3
Cc1cc(SCC(=O)N/N=C/c2ccccc2C(=O)O)c(C)cc1Br	-2.4	0.1	.	-4.8	1	4	0.0	2
CCN1CCN(C(CNS(=O)(=O)c2ccc(Br)cc2)c2cccnc2)CC1 (stereo not drawn)	-2.8	-0.4	.	3.8	3	-4	1.3	37
CCOc1ccc(NC(=O)C2CCCN2C(=O)NC2CCCCC2)cc1 (stereo not drawn)	5.6	-0.3	11%	-0.3	0	-9	-5.4	-3
O=C(N/N=C/c1ccc(Cl)cc1Cl)c1cccc(F)c1	-0.1	-9.1	30%	-0.3	-1	?	.	-10
C=CCSc1nc2c(c(=O)[nH]c(=O)n2C)n1CC	2.9	-0.1	14%	-6.2	-3	5	.	-3
Cc1c(NC(=O)c2ccc3c(c2)OCO3)cccc1-c1nc2ccccc2o1	2.3	0.3	-1%	-5.5	6	-29	.	17
Fc1ccc(-c2nn(-c3ccccc3)cc2CNCc2ccccc2)cc1	3.1	?	-8%	-13	11	-4	-0.5	?
Cc1cccc(NC(=O)c2nnn(-c3cccc(C(F)(F)F)c3)c2N)c1	0.9	0.0	-1%	5.6	-4	-4	-1.2	0
CNS(=O)(=O)c1cccc2nsnc12	0.6	0.1	.	4.3	-2	5	-0.4	-8
CCCNC(=O)CS(=O)Cc1nc(-c2cccc(OC)c2)oc1C (stereo not drawn)	0.6	-0.1	3%	0.4	-2	0	0.6	-5
COc1ccc(CCN(C)c2ccc(C(N)=O)cc2[N+](=O)[O-])cc1OC	1.3	1.4	.	-1.1	2	-3	1.6	-17
Cn1cc([N+](=O)[O-])c(C(=O)Nc2cc(Oc3ccccc3)cc([N+](=O)[O-])c2)n1	?	?	-1%	2.4	0	30	3.4	-27
Cc1ccccc1-n1c(-c2ccoc2C)n[nH]c1=S	-1.3	0.3	5%	0.1	-4	?	-78	3
COc1cc(-n2c(C)nc3cc(C(=O)N4CCOCC4)ccc32)cc(OC)c1OC	11	-0.3	-6%	-3.0	-1	-2	.	-2
OCCC1CN(Cc2ccccc2-c2ccco2)CCN1C1CCCC1 (stereo not drawn)	?	0.5	16%	-11	-2	-10	3.4	8
O=C(Cc1ccccc1)N/N=C/c1ccc(OCC(=O)Nc2ccccc2)cc1	3.5	-0.2	4%	1.9	2	-1	.	-7
Cc1c(NC(=O)c2ccc(C(=O)Nc3c(C)n(C)n(-c4ccccc4)c3=O)cc2)c(=O)n(-c2ccccc2)n1C	3.1	0.7	2%	1.8	-3	3	1.5	-8
Cc1ccc(C(=O)Nc2ccc(C(=O)N/N=C/c3cccnc3)cc2)cc1	5.0	2.4	.	-13	5	5	3.1	-1
O=C(NNC(=O)c1ccccc1Cl)c1ccc2c(c1)OCCO2	.	-1.6	.	0.3	1	.	-1.1	.
O=C(Cn1cc([N+](=O)[O-])cn1)N1CCN(Cc2ccc3c(c2)OCO3)CC1	-2.6	-0.1	-3%	-1.3	3	-1	0.2	3
CC(=O)Nc1cc(C(F)(F)F)ccc1Oc1cccc(Br)c1	1.5	-0.6	1%	-0.8	-2	-10	.	8
Cn1c(Cn2cnc([N+](=O)[O-])n2)nnc1SCC(=O)Nc1cccc(Cl)c1	-1.3	1.6	6%	.	-13	24	.	41
[O-][N+]12CC[N+]([O-])(CC1)c1ccccc12	-1.4	0.9	?	6.0	-5	-10	.	-5
Cc1cc(Cl)ccc1N(CC(=O)N=Nc1c(O)[nH]c2ccccc12)S(C)(=O)=O	7.3	1.0	-2%	1.9	0	7	.	20
CNC(=O)NC(=O)CSc1ccc(NC(C)=O)cc1	0.0	1.0	-5%	-2.0	0	3	.	-9
COc1ccccc1NC(=O)/C(=C/c1ccncc1)NC(=O)c1ccccc1	-0.1	0.0	.	2.3	2	5	3.6	-5
CCOC(=O)C1CCN(c2ncnc3c2cnn3C)CC1	1.5	1.6	4%	-0.3	-2	-7	.	-17
CN1CCN(C(=S)NC(=O)c2ccc(Br)cc2)CC1	-1.9	-0.4	-4%	1.5	3	25	-1.2	-20
CSc1nnc(NC(=O)c2ccc(S(=O)(=O)N3CCOCC3)cc2)s1	0.0	0.0	.	-4.5	5	0	-2.2	-17
CC(C)(C)c1cc(CCC(=O)NCCc2ccccn2)cc(C(C)(C)C)c1O	-3.5	-0.8	.	3.1	.	-2	-4.2	4
COc1ccc(NC(=O)CN2CCN(CC(=O)Nc3ccc(OC)cc3)CC2)cc1	0.3	0.8	.	2.4	-1	-10	4.2	-11
Cc1ccc(C(=O)Nc2cc(Cl)ccc2-n2cncn2)o1	3.4	0.7	3%	.	-8	-1	0.5	-6

Further records follow:
SMILES	RanGTP-Imp inh	A1 inh	Vif TR-FRET	LANA-H2B inh	Beta apoptosis	Calb FLC	MLL AF4-AF9 inh	T cruzi inh
Cc1nn(CC(=O)Nc2ccccc2)c(=O)c2ccccc12	3.7	-0.4	-1%	-3.0	-2	-3	.	6
Cc1onc(-c2ccccc2)c1C(=O)N(Cc1ccco1)Cc1cccs1	0.2	.	.	.	.	8	3.0	3
Cn1nc(-c2ccc(Cl)cc2)c2cc(C(=O)NCCCN3CCOCC3)sc21	4.4	0.1	>100µM*	1.2	12	15	.	-1
Cc1ccc2cc(CN(CC(C)C)C(=O)C3CCCO3)c(=O)[nH]c2c1 (stereo not drawn)	-1.9	0.4	2%	-3.8	2	1	.	-4
COc1ccc(N2CCN(C(=O)c3ccc4c(c3)NC(=O)C(CSCc3cccc(F)c3)N4)CC2)cc1 (stereo not drawn)	4.8	-0.6	-3%	-1.0	-7	-11	.	6
O=C(CCc1nnc2n(Cc3ccc(Cl)cc3)c(=O)c3ccccc3n12)NCCCN1CCOCC1	-1.1	0.1	.	-2.6	-1	2	0.5	3
COCCn1c(C)cc(C(=O)COC(=O)/C=C/c2cccc(OC)c2)c1C	-5.0	-0.5	-3%	-6.2	2	29	1.1	16
CN(C)S(=O)(=O)c1ccc(C(=O)OCC(=O)c2ccc(OC(F)F)cc2OC(F)F)cc1	-1.1	0.2	-3%	-2.2	-2	-4	.	-17
CCOC(=O)N1CCC(=NNC(N)=O)CC1	0.4	-0.5	5%	0.2	.	-8	-0.9	-12
CC(C)(C)C(=O)Nc1ccnn1C1CCN(C(=O)c2ccc(Cl)cc2F)CC1	1.2	0.8	1%	26*	1	7	-1.3	-17
COc1ccc(N2CCN(C3CCCN(Cc4ccc(F)c(F)c4)C3)CC2)cc1 (stereo not drawn)	0.0	0.5	.	-0.9	.	-6	18	48

From PubChem
